Screening results deposited in PubChem BioAssay by several laboratories.
Ecoli growth: E. coli growth inhibition, primary screen, OD600; 330,000 compounds, 0.21% hits; OD600 absorbance (no concentration beside the values); AID 1053175, 2014; Escherichia coli growth, 23 h; stronger effect = lower value;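 active = OD600 absorbance below the run mean of sample wells minus 3.6 SD, in any replicate, cut at about 0.56 in these data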;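 also: stock transfer was 300 nL into about 60 µL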
HNF4A DNA FP: change in binding of human HNF4A to DNA, primary screen, biochemical, fluorescence polarization, FITC-DNA. 1 h. Hepatocyte nuclear factor 4-alpha (Homo sapiens), P41235. 360,000 compounds, 0.3% hits. activity change, % at 10 µM; in the data active = activity change above about 30%, passing the limit was not always enough;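 also: controls were the assay level and a saturating level of protein; the project sought stronger binding though the title names inhibitors; some compounds called inactive have numbers as strong as hits; positive values seem to mean higher polarization but the record does not say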
ALR inh: inhibitors of human ALR sulfhydryl oxidase, primary screen, biochemical, H2O2 detection, HRP-luminol luminescence, single point. FAD-linked sulfhydryl oxidase ALR (Homo sapiens), P55789. purified ALR, DTT oxidation. inhibition, % (test concentration not listed). 290,000 compounds, 3.8% hits;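 active = mean and each replicate at 75% or more; inconclusive = only one of the two met; inactive = neither met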;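 also: stock transfer was 7.5 nL into about 7.5 µL; 0% = neutral wells and 100% = wells with inactivated enzyme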
Beta2AR agonist: beta2AR agonists driving receptor internalization, primary screen, cell-based, FAP fluorogen, flow cytometry. Beta-2 adrenergic receptor (Homo sapiens), P07550. Am2.2-beta2AR cells; reference of the scale not given here. response, % (test concentration not listed). 340,000 compounds, 0.43% hits. AID 504454, 2011;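 active = response above a set limit, near 3 SD of response in nonfluorescent compounds, cut at about 42% in these data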;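 also: stock transfer was 100 nL into about 11 µL; a reference agonist was the positive control; negative values mostly stem from fluorescent compounds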
Target sequence (P07550 whole entry, looked up): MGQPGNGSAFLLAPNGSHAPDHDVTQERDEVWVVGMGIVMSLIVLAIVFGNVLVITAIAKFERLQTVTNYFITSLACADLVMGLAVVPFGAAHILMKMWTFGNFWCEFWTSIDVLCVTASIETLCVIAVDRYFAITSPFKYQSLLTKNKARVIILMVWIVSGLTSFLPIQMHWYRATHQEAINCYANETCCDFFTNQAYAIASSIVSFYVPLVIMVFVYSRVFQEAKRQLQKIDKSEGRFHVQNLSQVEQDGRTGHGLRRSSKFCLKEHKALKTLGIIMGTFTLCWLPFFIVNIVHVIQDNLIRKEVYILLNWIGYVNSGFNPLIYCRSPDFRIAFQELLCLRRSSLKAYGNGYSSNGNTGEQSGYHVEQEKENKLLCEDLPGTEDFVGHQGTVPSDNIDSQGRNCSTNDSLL
UCH37 inh: inhibitors of human UCH37 deubiquitinase, primary screen, biochemical, Ub-AMC cleavage, fluorescence. Ubiquitin carboxyl-terminal hydrolase isozyme L5 (Homo sapiens), Q9Y5K5. purified proteasome/UCH37. inhibition, % (no concentration beside the values). 330,000 compounds, 0.33% hits. AID 588478, 2011;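 active = mean of two replicates above 20%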;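 also: 0% = compound-free wells with enzyme and 100% = wells lacking proteasome; stock transfer was 100 nL into about 20 µL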
Target sequence (Q9Y5K5 whole entry, looked up): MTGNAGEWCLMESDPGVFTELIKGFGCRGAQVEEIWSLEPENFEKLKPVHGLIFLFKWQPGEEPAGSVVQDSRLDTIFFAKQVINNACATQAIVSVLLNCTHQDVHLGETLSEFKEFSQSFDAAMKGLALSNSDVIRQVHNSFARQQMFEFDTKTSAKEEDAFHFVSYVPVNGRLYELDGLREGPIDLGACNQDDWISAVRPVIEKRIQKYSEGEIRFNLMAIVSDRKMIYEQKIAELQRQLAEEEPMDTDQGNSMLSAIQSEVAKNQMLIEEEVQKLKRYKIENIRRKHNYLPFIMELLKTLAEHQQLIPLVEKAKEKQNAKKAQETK
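Assay system: Proteasome-bound UCH37. Buffer or medium: pH 7.4 Tris-HCl (50 mM) with ovalbumin, ATP-MgCl2, DTT. Incubation: 30 min preincubation with enzyme, 25 min cleavage at room temperature. Measured by: fluorescence, ex 355 nm, em 460 nm. Read-out basis: percent inhibition. Control set: wells without proteasome as full block, compound-free enzyme plus substrate as uninhibited.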
LANA-H2B inh: blockers of LANA interaction with H2A/H2B – biochemical, FP readout, HTS, primary screen; cell-free LANA-H2A/H2B peptide, fluorescence polarization; inhibition, % (no concentration beside the values); 320,000 compounds, 0.6% hits; AID 2629, 2010; in the data active = inhibition mostly above about 10%, no sharp cut-off; inactive = mostly below about 6.7%;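 also: stock transfer was 7.5 nL into about 10 µL; 0% = median of vehicle wells and 100% = median of positive control wells; one replicate is shown; the record names a cut of 25% in any replicate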
FGF22 binding: binders of human FGF22 protein, primary screen, FGF22 synaptogenesis inhibitor project, biophysical, thermal shift, single point. recombinant FGF22 thermal shift, SYPRO orange fluorescence; percent of sucrose octasulfate shift, DMSO zero. 340,000 compounds, 1.5% hits. calls only at 9.99 µM. Fibroblast growth factor 22 (Homo sapiens), Q9HCT0;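 active = melting point raised past a set limit in the mean and every replicate; inconclusive = no clear call; three in four hits are not shown here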
Target sequence (Q9HCT0 whole entry, looked up): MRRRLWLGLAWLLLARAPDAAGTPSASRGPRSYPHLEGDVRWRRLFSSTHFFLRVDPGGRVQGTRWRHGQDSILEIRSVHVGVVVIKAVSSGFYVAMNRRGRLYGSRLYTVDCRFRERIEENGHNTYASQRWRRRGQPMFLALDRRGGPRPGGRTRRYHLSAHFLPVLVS
* hit, by the source's call; i = inactive; ? = inconclusive; nt = no result given; + = active, no number. This is a subset, so the mix of outcomes need not match the whole.

SMILES	Ecoli growth	HNF4A DNA FP	ALR inh	Beta2AR agonist	UCH37 inh	LANA-H2B inh	FGF22 binding
CN(C)c1ccc(NS(=O)(=O)c2cc(Cl)ccc2Cl)cc1	0.73	2.5	99*	8	5.3	1.9	i
O=C1CCC/C(=N\NC(=O)c2ccc(NS(=O)(=O)c3ccc(Br)cc3)cc2)C1	nt	2.7	7	-4	nt	-2.0	nt
COc1ccc(CNc2oc(COc3ccc(Cl)cc3)nc2C#N)cc1	0.66	1.3	-10	5	3.7	-3.6	nt
Cc1cccc2c1OCC/C2=N\NC(=O)COc1ccccc1Cl	nt	1.5	-6	10	nt	8.6	nt
COc1ccc(OC)c(Nc2nc3nonc3nc2N2CCCC(C)C2)c1 (stereo unspecified)	0.7	20	-3	3	2.1	-3.6	i
CC(=O)c1c(C)[nH]c(C(=O)N2CC(C)CC(C)C2)c1C (stereo unspecified)	0.65	0.2	-4	-2	0.4	-2.7	i
CCOc1ccccc1NC(=O)c1ccc(OCC(=O)N2CCOCC2)c(OC)c1	0.69	8.1	-5	-1	0.4	-3.5	i
O=c1c(-c2ccco2)[n+]([O-])c2ccccc2n1OCc1ccccc1	nt	2.2	16	-9	nt	1.3	nt
O=c1oc(-c2ccccc2)c(-c2ccccc2)c2ccccc12	0.63	3.8	nt	2	-0.1	nt	i
CCN(CC)C(=O)CSc1nc2ccccc2c(=O)[nH]1	0.77	2.3	0	2	0.0	2.8	nt
CCCCc1ccc(NC(=O)Nc2cnccn2)cc1	0.7	3.4	-7	1	0.9	3.2	i
Cc1sc2ncnc(NCCCn3ccnc3)c2c1C	0.67	-1.0	-9	-7	0.0	1.3	nt
COC(=O)C(C)NS(=O)(=O)c1ccc(NC(C)=O)cc1 (stereo unspecified)	0.66	3.2	-2	-8	0.1	-2.5	i
COc1cc(C)c(Cl)cc1S(=O)(=O)n1ccnc1C	0.64	1.8	-1	-9	1.1	1.5	i
O=C(NC1CCN(C(=O)Nc2ccc(F)cc2)CC1)c1ccccc1F	0.69	-3.1	2	-1	0.5	-1.7	i
CC(=O)Oc1ccc(-c2cccc(C(=O)O)c2)cc1	0.72	1.7	42	-1	5.7	1.5	nt
Cc1noc(C)c1Cn1nc(C(=O)O)c2ccccc2c1=O	0.77	0.6	-3	1	2.1	-2.9	nt
CN1CCc2nc3ccc(Cl)cc3c(-c3ccccc3Cl)c2C1	0.72	4.2	-32	1	4.3	5.4	nt
Cc1ccc(C(=O)NNC(=O)CNc2cccc(Cl)c2)cc1	0.68	3.0	0	6	4.1	3.0	i
O=C(O)[C@H](Cc1ccccc1)NC(=O)N1CCN(c2ccccc2)CC1	0.7	-0.9	65	3	3.2	-4.2	i
CCCN1C(=O)/C(=N\OCC(=O)Nc2ccc(C(C)C)cc2)c2ccccc21	nt	-4.2	-15	-8	nt	-3.9	i
COc1ccc(CC(NC(C)=O)C(=O)NC2CCN(S(=O)(=O)c3ccc(NC(C)=O)cc3)CC2)cc1 (stereo unspecified)	0.62	1.0	-2	6	0.3	0.5	i
CCCNS(=O)(=O)c1ccc(OCC(=O)NCC2CCCO2)cc1 (stereo unspecified)	0.66	-0.5	-4	-3	-0.2	-1.1	i
COc1ccccc1/C=C/C(=O)NCC(=O)N/N=C/c1ccc2c(c1)OCO2	nt	1.1	88*	-6	nt	-3.3	i
CCCCN(C(=O)c1oc2ccc(OCC)cc2c1C)c1c(N)n(CCCC)c(=O)[nH]c1=O	nt	7.4	2	-18	nt	6.1	nt
SMILES	Ecoli growth	HNF4A DNA FP	ALR inh	Beta2AR agonist	UCH37 inh	LANA-H2B inh	FGF22 binding
COC(=O)c1cc2c(C)nn(C)c2s1	0.69	-1.2	-16	5	4.4	7.7	i
CN1CC(=O)NC1=NC(=O)C12CC3CC(CC(C3)C1)C2	0.78	0.1	2	3	-0.5	3.3	nt
Cc1cccc(NC(=O)c2ccc(S(=O)(=O)N3CCCCC3)cc2)c1	0.68	3.1	-8	8	1.0	-1.9	i
CC(/C=C/c1ccccc1)=N/NC(=O)CNC(=O)c1ccc2c(c1)OCO2	nt	0.0	-1	-5	nt	1.8	nt
Cc1nn(Cc2cccc(C(=O)NCC(C)C)c2)c(C)c1Br	0.69	2.7	nt	5	-1.0	-6.4	nt
Cc1cc(=O)[nH]c(N)n1	0.69	-1.3	1	-8	4.5	13*	i
Cc1cc(C)cc(Cn2ncc(Cl)c(Cl)c2=O)c1	0.64	nt	96*	nt	3.3	1.0	nt
CC1CCCCN1CCNC(=O)C1CCN(S(=O)(=O)N2CCCCC2)CC1 (stereo unspecified)	0.64	-9.8	2	-3	0.8	-7.8	nt
O=C1/C(=C\c2ccc(Br)o2)Cc2ccccc21	nt	-0.5	-17	-12	nt	2.2	nt
CNS(=O)(=O)c1ccc(Oc2ccc(S(=O)(=O)NC)cc2)cc1	0.76	-0.9	-1	0	3.9	-1.1	nt
Cc1cc(C)n2c(SCC(=O)N3CCN(S(=O)(=O)c4ccc(Cl)cc4)CC3)nnc2n1	0.71	-2.4	1	-3	-4.0	6.9	nt
CC1CCCC(C)N1C(=O)COC(=O)C12CC3CC(CC(Cl)(C3)C1)C2 (stereo unspecified)	0.68	-0.6	-4	1	-0.8	17*	i
CCC(C(=O)Nc1ccccc1-c1ccccc1)c1ccccc1 (stereo unspecified)	0.72	1.2	2	-1	3.1	7.4	nt
CN1C(C(=O)NCCc2cccs2)CC2Cn3c(nc4cc(Cl)c(Cl)cc43)C21 (stereo unspecified)	0.68	-2.0	nt	-7	-1.0	-6.3	i
Cc1ccc(NC(=O)[C@@H]2CCCN2S(=O)(=O)c2ccccc2C(F)(F)F)cc1S(=O)(=O)N1CCOCC1	0.72	-0.9	-8	-2	2.4	-2.7	nt
COc1cc(C(=O)Nc2cc(S(=O)(=O)N3CCOCC3)ccc2N2CCOCC2)cc(OC)c1C	0.66	-1.9	nt	24	0.8	nt	i
COc1ccccc1N1CCN(C(=O)C2CCN(S(=O)(=O)c3ccc(F)cc3)CC2)CC1	0.69	1.0	10	3	4.9	0.1	nt
Nc1cc(Oc2ccc(F)cc2F)cc([N+](=O)[O-])c1	0.63	2.1	-8	-9	2.0	1.5	i
CC(=O)Nc1cccc(NC(=O)c2ccc3[nH]c(C)c(C)c3c2)c1	0.63	-0.1	35	5	1.2	6.5	+
COc1cc(C(=O)Nc2nc3ccccc3[nH]2)ccc1OC(F)F	0.66	-2.4	-3	-6	1.5	1.7	i
COc1ccc(-n2ncc3c2CC(C)(C)CC3NC(=O)CCn2nc(C)cc2C)cc1 (stereo unspecified)	0.69	5.5	-4	4	4.9	0.1	i
CCN(CC)C(=O)c1csc(Nc2cccc3ccccc23)n1	0.68	-0.3	-78	5	1.9	4.2	i
CC(C)c1cc(N2CCN(C(=O)c3ccco3)CC2)n2c(nc3ccccc32)c1C#N	0.74	1.7	-8	8	-95	1.1	i
CC(=O)N1c2ccc(S(=O)(=O)N3CCC(C(=O)Nc4ccc(F)cc4)CC3)cc2CC1C (stereo unspecified)	0.63	0.9	-9	0	1.1	-2.9	i
Cc1cccc(N2CCN(C(=O)C3CCC(CNS(=O)(=O)c4cccs4)CC3)CC2)c1C (stereo unspecified)	0.71	-1.4	-10	12	3.1	-3.0	i
SMILES	Ecoli growth	HNF4A DNA FP	ALR inh	Beta2AR agonist	UCH37 inh	LANA-H2B inh	FGF22 binding
Cc1ccc2c(nc3s/c(=C\c4ccc(-c5ccccc5C(=O)O)o4)c(=O)n32)c1C	nt	83	-4	-107	nt	-0.5	i
C[C@@H](NC(=O)c1nc[nH]c1C(=O)N[C@@H](Cc1ccccc1)C(=O)OCc1ccccc1)c1ccccc1	nt	2.8	-5	30	5.7	2.6	i
O=C(NC1CCN(Cc2ccccc2)CC1)c1ccccc1Cl	0.65	3.0	-7	2	-2.2	-1.8	i
COc1ccccc1C(=O)NC(=O)COC(=O)Cn1[nH]c(=O)c2ccccc2c1=O	0.68	-0.6	-12	5	1.8	-1.4	i
O=C(CN1CCC(NC(=O)C2CCCCC2)CC1)Nc1ccccc1	nt	-4.6	nt	0	nt	nt	i
CCOc1cc(/C=C(\C#N)C(N)=O)ccc1OCc1c(C)no[n+]1[O-]	0.69	4.3	5	7	1.6	-3.1	i
Cc1ccc(Oc2ccc(OCC(=O)OC3CCS(=O)(=O)C3)cc2)cc1 (stereo unspecified)	0.71	nt	1	nt	-2.1	2.2	nt
CCOC(=O)N1CCC(NC(=O)CCC(=O)N2CC(C)Oc3ccc(C)cc32)CC1 (stereo unspecified)	0.69	0.0	-11	-9	0.6	-2.6	nt
COc1ccc(NS(=O)(=O)c2cccc(C(=O)NNC(=O)CNC(=O)c3ccc(C)cc3)c2)cc1	0.66	-2.8	10	0	-1.4	-1.9	i
COc1ccccc1C(=O)NCCC(=O)Nc1cccnc1	0.65	2.5	nt	-16	2.6	-3.2	i
Cc1ccc(NC(=O)C2CCCN2C(=O)NC2CCCCC2)c(C)c1 (stereo unspecified)	0.74	0.3	-1	-4	1.8	1.6	nt
CCOc1ccccc1NC(=O)c1ccccc1NC(=O)c1ccco1	0.66	-1.6	-2	-1	0.3	1.3	i
COc1ccc(F)cc1S(=O)(=O)n1nnc2ccccc21	0.69	4.0	-3	14	5.1	-0.1	nt
Cn1nc(C(=O)N2CCN(c3ccc(F)cc3)CC2)c2c1-c1ccccc1S(=O)(=O)C2	0.63	-1.6	31	6	0.1	5.5	i
COc1ccccc1NC(=O)COc1ccc(C(=O)NCC2CCCO2)cc1OC (stereo unspecified)	0.68	3.1	3	-4	-0.9	-1.2	i
O=C(c1cc(=O)[nH]c2ccccc12)N1CCN(c2ccccc2)CC1	0.67	2.2	35	-11	3.3	4.7	i
CCn1c(SCC(=O)Nc2nc(-c3ccc(C)cc3)cs2)nnc1-c1ccccc1	0.72	1.3	4	-1	2.7	1.7	nt
CCN1C(=O)/C(=C\C=C2/C=CC=CN2CC)SC1=S	0.73	136*	37	-3	12	-11	nt
CNS(=O)(=O)c1cccc(C(=O)OCC(=O)N2c3ccccc3CC2C)c1 (stereo unspecified)	0.71	-6.0	0	3	0.5	4.1	nt
CCSc1ncc(/C=N/Nc2ccc(Cl)cc2)n1C	nt	-0.3	?	2	nt	-1.5	nt
CC(CC(=O)Nc1ccc(Cl)c([N+](=O)[O-])c1)c1ccccc1 (stereo unspecified)	0.65	-3.1	-10	0	2.8	2.9	nt
CC(NCC(=O)Nc1ccccc1C(=O)NC1CC1)c1cccc(Cl)c1 (stereo unspecified)	0.68	7.8	nt	-2	1.3	nt	i
C/C=C/C(=O)N1CC2(CC(c3cccc(NC(=O)/C(C)=C/C)c3)=NO2)C[C@H]1C(N)=O (stereo partly specified)	nt	-4.7	-10	6	0.0	0.4	i

Five entries already listed, arranged by count of non-hydrogen atoms, lowest first.
SMILES	Ecoli growth	HNF4A DNA FP	ALR inh	Beta2AR agonist	UCH37 inh	LANA-H2B inh	FGF22 binding
O=C1/C(=C\c2ccc(Br)o2)Cc2ccccc21	nt	-0.5	-17	-12	nt	2.2	nt
Cc1sc2ncnc(NCCCn3ccnc3)c2c1C	0.67	-1.0	-9	-7	0.0	1.3	nt
Cc1cccc(NC(=O)c2ccc(S(=O)(=O)N3CCCCC3)cc2)c1	0.68	3.1	-8	8	1.0	-1.9	i
COc1ccc(NS(=O)(=O)c2cccc(C(=O)NNC(=O)CNC(=O)c3ccc(C)cc3)c2)cc1	0.66	-2.8	10	0	-1.4	-1.9	i
COc1ccc(CC(NC(C)=O)C(=O)NC2CCN(S(=O)(=O)c3ccc(NC(C)=O)cc3)CC2)cc1 (stereo unspecified)	0.62	1.0	-2	6	0.3	0.5	i
